Cruzain noTriton – qHTS Assay for Promiscuous and Specific Inhibitors of Cruzain (without detergent). Cruzipain (Trypanosoma cruzi), P25779. purified cruzain, Z-FR-AMC fluorescence, no detergent. Potency, µM, for the others: max response, negative = inhibition, actives largely listed as inhibitors. actives 2.3% (n = 200,000). AID 1476, 2009;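 also: plate controls were enzyme without inhibitor for no effect and buffer without enzyme for full effect; nearly all actives have a fitted effect of over 40% in size; top concentration of the series not given in the record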
Target sequence (P25779 123-467 limits assumed): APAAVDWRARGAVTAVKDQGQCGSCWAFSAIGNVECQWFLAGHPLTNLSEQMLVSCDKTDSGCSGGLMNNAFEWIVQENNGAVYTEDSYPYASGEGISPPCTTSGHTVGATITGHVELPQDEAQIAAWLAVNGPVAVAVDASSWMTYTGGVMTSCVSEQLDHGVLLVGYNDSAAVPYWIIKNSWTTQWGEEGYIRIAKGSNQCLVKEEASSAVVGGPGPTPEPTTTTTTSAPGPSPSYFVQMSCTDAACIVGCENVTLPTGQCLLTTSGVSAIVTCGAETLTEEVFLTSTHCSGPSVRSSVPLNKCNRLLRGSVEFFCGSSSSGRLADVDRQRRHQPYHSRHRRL
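Purified cruzain at 1.5 nM, pre-incubated 15 min with compound at room temperature in 100 mM sodium acetate pH 5.5, 5 mM DTT, 0.00005% Triton X-100. Reaction started with 2 uM Z-FR-AMC; AMC fluorescence increase over 60 s gives rate.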
StopGo reporter – High Throughput Screening for Foot and Mouth Disease Virus Antivirals; human cells with a luciferase reporter of 2A StopGo recoding; control for the full effect not named in the record; Potency, µM (highest dose often 57.9 µM), for the others: top-dose signal change, negative = less light; actives 1.2% (n = 410,000); active = well fitted falling curve with a large enough effect; inconclusive = small, poorly fitted or top-dose-only effect; inactive = no such curve, though single readings can be large or run the other way; tested in HEK293T cells; also: % is scaled to controls: 0 for no effect and ±100 for the full control effect; nearly all actives have a fitted effect of over 45% in size; luciferase light after 4 h
SARS PLpro yeast – qHTS of Yeast-based Assay for SARS-CoV PLP. S. cerevisiae expressing SARS-CoV PLpro, growth rescue; control for the full effect not named in the record. Potency, µM (series often up to 32.9 µM), without a hit: at the highest dose activity, positive = growth rescue. actives 0.19% (n = 330,000); active means well fitted rising curve with a large enough effect; inconclusive means small, poorly fitted or top-dose-only effect; inactive means no such curve, though single readings can be large or run the other way; also: 0% is about no effect; nearly all actives have a fitted effect of over 55% in size; growth read by luminescence after 48 h
NS1 function inh – qHTS Assay for Inhibitors of Influenza NS1 Protein Function. S. cerevisiae slowed by influenza A NS1, growth recovery by OD600. Potency, µM (doses to about 46.1 µM), for inactives: at the top dose activity, positive = more growth. actives 0.4% (n = 270,000); active means well fitted rising curve with a large enough effect; inconclusive means small, poorly fitted or top-dose-only effect; inactive means no such curve, though single readings can be large or run the other way; also: nearly all actives have a fitted effect of over 50% in size
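In this qHTS, NS1 from influenza A is expressed in budding yeast, where it slows growth. Cells are switched from glucose to 2% galactose medium (pH 6.0, -URA), treated with compound, and growth recovery is read at OD600.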
LASV entry inh – qHTS for Inhibitors of binding or entry into cells for Lassa Virus | Lassa virus pseudotype entry inhibition, cell reporter; control for the full effect not named in the record | Potency, µM (highest dose often 37.9 µM), for the others: top-dose activity change, negative = inhibition, most hits filed as inhibitors | actives 1.2% (n = 300,000) | AID 540256, 2011; active means well fitted inhibition curve with a large enough effect; inconclusive means small, poorly fitted or top-dose-only effect, or effect the other way; inactive means flat fitted curve, though single readings scatter; tested in HEK293 cells; also: % is scaled to controls: 0 for no effect and ±100 for the full control effect; nearly all actives have a fitted effect of over 50% in size; luciferase read-out
RE007 growth inh – qHTS Assay for Inhibitors of the HIV-1 protein Vpr | S. pombe RE007 Vpr strain, BacTiter-Glo ATP luminescence, 24 h; control for the full effect not named in the record | Potency, µM (highest dose often 92.2 µM), for inactives: at the highest dose activity change, negative = less growth | actives 0.21% (n = 360,000) | AID 651644, 2012; active = well fitted falling curve with a large enough effect; inconclusive = small, poorly fitted or top-dose-only effect; inactive = no such curve, though single readings can be large or run the other way;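 also: % is scaled to controls: 0 for no effect and ±100 for the full control effect; nearly all actives have a fitted effect of over 50% in size; the assay follows cell death caused by Vpr and the record does not say whether a fall means rescue or toxicity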
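Fission yeast strain RE007, carrying one chromosomally integrated HIV-1 vpr copy, was seeded at OD 0.01 in PMG+AL medium with 23 nL pinned compound. After 24 h at 30 °C and 99% humidity, viability was read by BacTiter-Glo luminescence.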
Cruzain Triton – qHTS Assay for Promiscuous and Specific Inhibitors of Cruzain (with detergent). purified cruzain, Z-FR-AMC fluorescence, 0.01% Triton. Potency, µM, for inactives: max response, negative = inhibition, actives largely listed as inhibitors. actives 0.43% (n = 200,000);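 also: plate controls were neutral wells for no effect and buffer without enzyme for full effect; nearly all actives have a fitted effect of over 40% in size; top concentration of the series not given in the record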
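Cruzain (1.5 nM) preincubated 15 min at RT with compound in 100 mM sodium acetate pH 5.5, 5 mM DTT, 0.01% Triton X-100. Reaction started with 2 uM Z-FR-AMC; AMC fluorescence (ex 360/em 450 nm) change over 60 s gave rate.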
Marburg entry inh – qHTS for inhibitors of binding or entry into cells for Marburg Virus. Marburg virus pseudotyped entry inhibition, cell reporter; control for the full effect not named in the record; about a third of the inactives were read at about 46 µM. Potency, µM (doses to about 37.8 µM), for inactives: top-dose activity change, negative = inhibition, actives largely listed as inhibitors. actives 1.8% (n = 300,000); active = well fitted inhibition curve with a large enough effect; inconclusive = small, poorly fitted or top-dose-only effect, or effect the other way; inactive = flat fitted curve, though single readings scatter; tested in HEK293 cells; about a fifth of its hits are not listed in these tables; also: % is scaled to controls: 0 for no effect and ±100 for the full control effect; luciferase read-out
* = called active by the depositor; & = joins results of further samples; [ ] = another dose, or the depositor's remark. Unless noted, calls follow the shape of the dose curve; as a rule, active = well fitted curve in the direction sought with a large enough effect; inconclusive = small, poorly fitted or top-dose-only effect, or another doubt; inactive = no such curve, though single readings can be large; an effect the other way counts as inactive or inconclusive. Potency is read from the fitted curve at half-maximal effect.

How did NCCCN1CCOCC1 do in these assays?
Cruzain noTriton: 2%; StopGo reporter: -7%; SARS PLpro yeast: 3%; NS1 function inh: 6%; LASV entry inh: 10%; RE007 growth inh: 12%; Cruzain Triton: 6.4%; Marburg entry inh: 11%

Results for CSc1ccccc1C(=O)N1CCN(S(=O)(=O)c2sc(C(=O)O)c(C)c2C(=O)O)CC1 ?
StopGo reporter: -10%; SARS PLpro yeast: 1%; LASV entry inh: 9%; RE007 growth inh: -2%; Marburg entry inh: 14%

What do the screens show for `O=C(/C=C/c1cccs1)Nc1sc2c(c1C(=O)O)CCCC2`?
StopGo reporter: 11%; SARS PLpro yeast: -11%; NS1 function inh: -31%; LASV entry inh: inconclusive; RE007 growth inh: inconclusive; Marburg entry inh: inconclusive

What do the screens show for `Cc1cc(NC(=O)c2oc3ccccc3c2C)ccc1-n1cnnn1`?
Cruzain noTriton: -6%; SARS PLpro yeast: 1%; NS1 function inh: -47%; LASV entry inh: inconclusive; RE007 growth inh: 8%; Cruzain Triton: -4.2%; Marburg entry inh: -2%

What do the screens show for `COc1cc(/C=C2\CCCc3c2nc2ccccc2c3C(=O)O)cc([N+](=O)[O-])c1O`?
StopGo reporter: -5%; SARS PLpro yeast: 0%; NS1 function inh: 20%; LASV entry inh: -4%[46.1 µM]; RE007 growth inh: -5%; Marburg entry inh: 4%[46.1 µM]

How did Cc1c(NC(=O)CSc2ncccn2)c(=O)n(-c2ccccc2)n1C do in these assays?
StopGo reporter: -2%; SARS PLpro yeast: 2%; LASV entry inh: -7%; RE007 growth inh: -9%; Marburg entry inh: 15%[46.1 µM]

How did Cc1ccc2nc(Cl)c3cc(C(=O)NCCCN4CCC(C)CC4)sc3c2c1 do in these assays?
Cruzain noTriton: 0%; StopGo reporter: -13%; LASV entry inh: inconclusive; Cruzain Triton: -6.5%; Marburg entry inh: 6%[46.1 µM]

How did COc1ccc(CC2c3cc(OC)c(OC)cc3CCN2C)cc1O (stereo unspecified) do in these assays?
Cruzain noTriton: -1%; StopGo reporter: -24%; SARS PLpro yeast: -6%; NS1 function inh: -27%; LASV entry inh: 2%; RE007 growth inh: -12%; Cruzain Triton: 2.5%; Marburg entry inh: 10%

How did COc1ccccc1N1CCN(Cc2cc3c(cc2Br)OCCO3)CC1 do in these assays?
StopGo reporter: -28%; SARS PLpro yeast: 23%; NS1 function inh: -19%; LASV entry inh: inconclusive; RE007 growth inh: -16%; Marburg entry inh: 11%[46.1 µM]

How did Cn1c(-c2c(N)n(CCc3ccccc3)c3nc4ccccc4nc23)nc2ccccc21 do in these assays?
Cruzain noTriton: -28%; StopGo reporter: inconclusive; SARS PLpro yeast: -29%; NS1 function inh: -133%; LASV entry inh: -22%; RE007 growth inh: inconclusive; Cruzain Triton: -6.6%; Marburg entry inh: inconclusive

What do the screens show for `C/C(=N/N=C1/NC(=O)CC(C(=O)Nc2ccccc2)S1)c1cccs1` (stereo unspecified)?
Cruzain noTriton: -2%; StopGo reporter: -10%; SARS PLpro yeast: 2%; NS1 function inh: -6%; LASV entry inh: 1%; RE007 growth inh: 5%; Cruzain Triton: -7.7%; Marburg entry inh: 13%

Results for COC(=O)CN1C(=O)COc2ccc(S(=O)(=O)N3CCCCCC3)cc21 ?
StopGo reporter: -4%; SARS PLpro yeast: -5%; NS1 function inh: 1%; RE007 growth inh: 1%

What do the screens show for `O=C1CSC(c2cccc(F)c2)N1c1c(F)cccc1F` (stereo unspecified)?
StopGo reporter: -14%; SARS PLpro yeast: 1%; NS1 function inh: -3%; LASV entry inh: 11%[46.1 µM]; RE007 growth inh: 14%; Marburg entry inh: -15%[46.1 µM]

Results for CCOC(=O)N1CCC(Nc2c(N3CCN(c4cccc(C(F)(F)F)c4)CC3)c(=O)c2=O)CC1 ?
Cruzain noTriton: inconclusive; StopGo reporter: inconclusive; SARS PLpro yeast: -4%; NS1 function inh: -20%; LASV entry inh: 4%; RE007 growth inh: 2%; Cruzain Triton: -4.4%; Marburg entry inh: 0%&-4%

Results for CCOc1ccc(CCNC(=O)c2cc3c(=O)n(CC)c4ccccc4c3s2)cc1OCC ?
Cruzain noTriton: -18%; StopGo reporter: 0%; LASV entry inh: 5%[46.1 µM]; Cruzain Triton: 0.6%; Marburg entry inh: 27%[46.1 µM]

Not a retest: 2 of the compounds above.
Results for CCOC(=O)N1CCC(Nc2c(N3CCN(c4cccc(C(F)(F)F)c4)CC3)c(=O)c2=O)CC1 ?
Cruzain noTriton: inconclusive; StopGo reporter: inconclusive; SARS PLpro yeast: -4%; NS1 function inh: -20%; LASV entry inh: 4%; RE007 growth inh: 2%; Cruzain Triton: -4.4%; Marburg entry inh: 0%&-4%

Results for CCOc1ccc(CCNC(=O)c2cc3c(=O)n(CC)c4ccccc4c3s2)cc1OCC ?
Cruzain noTriton: -18%; StopGo reporter: 0%; LASV entry inh: 5%[46.1 µM]; Cruzain Triton: 0.6%; Marburg entry inh: 27%[46.1 µM]

Next part:
How did Cc1ccc(C)n1-c1sccc1C(=O)O do in these assays?
Cruzain noTriton: inconclusive; StopGo reporter: 0%; SARS PLpro yeast: 5%; NS1 function inh: inconclusive; LASV entry inh: 15%; RE007 growth inh: inconclusive; Cruzain Triton: -6.7%; Marburg entry inh: inconclusive

How did COCc1cc(C)nc2sc(C(=O)OC(C)C)c(N)c12 do in these assays?
Cruzain noTriton: -1%; StopGo reporter: -12%; SARS PLpro yeast: -9%; NS1 function inh: -49%; LASV entry inh: -16%; RE007 growth inh: -6%; Cruzain Triton: 4.6%; Marburg entry inh: inconclusive

What do the screens show for `CC(=O)C1=C(C)NC(SCC(N)=O)=C(C#N)C1c1sccc1C` (stereo unspecified)?
Cruzain noTriton: -2%; SARS PLpro yeast: -3%; NS1 function inh: 7%; LASV entry inh: -10%; RE007 growth inh: 0%; Cruzain Triton: -2.8%; Marburg entry inh: 7%

What do the screens show for `COc1cc(C(=C(CC(=O)O)C(=O)O)c2ccc3c(c2)OCO3)cc(OC)c1OC`?
StopGo reporter: -20%; LASV entry inh: 13%[46.1 µM]; RE007 growth inh: 2%; Marburg entry inh: 28%

What do the screens show for `COC(=O)c1ccc(OCC2c3cc(OC)c(OC)cc3CCN2C(=O)C(C)C)cc1` (stereo unspecified)?
Cruzain noTriton: inconclusive; StopGo reporter: inconclusive; LASV entry inh: 9%[46.1 µM]; Cruzain Triton: -0.9%

How did CN(CCNC(=O)c1ccc(CS(=O)(=O)c2ccc(Br)cc2)o1)CCc1ccccc1 do in these assays?
StopGo reporter: -30%; SARS PLpro yeast: 1%; NS1 function inh: -1%; RE007 growth inh: -13%

Results for O=C(c1ccc(N2CC3CC(C2)c2cccc(=O)n2C3)c([N+](=O)[O-])c1)N1CCCC1 (stereo unspecified) ?
StopGo reporter: -2%; SARS PLpro yeast: 3%; LASV entry inh: 6%; RE007 growth inh: 2%; Marburg entry inh: inconclusive

What do the screens show for `CCn1c(C)cc2c(c1=O)C(c1ccccc1)C(C(=O)OC)=C(N)O2` (stereo unspecified)?
Cruzain noTriton: 15%; StopGo reporter: 0%; SARS PLpro yeast: 4%; NS1 function inh: 3%; LASV entry inh: 6%; RE007 growth inh: 2%; Cruzain Triton: 0.6%; Marburg entry inh: 25%

What do the screens show for `COC(=O)c1[nH]c2cc(OC)ccc2c1NC(=O)c1ccc2c(c1)OCO2`?
Cruzain noTriton: 9%; StopGo reporter: 5%; SARS PLpro yeast: -2%; NS1 function inh: 16%; LASV entry inh: -3%; RE007 growth inh: 13%; Cruzain Triton: -7.8%; Marburg entry inh: -16%

How did C=CCOc1ccc(C2NC(=S)NC(c3ccccc3)=C2C(C)=O)cc1OC (stereo unspecified) do in these assays?
StopGo reporter: 0%; SARS PLpro yeast: -1%; NS1 function inh: 2%; LASV entry inh: -6%[46.1 µM]; RE007 growth inh: 11%; Marburg entry inh: -11%[46.1 µM]

Results for Cc1ccc(C(=O)O)c(C(=O)Nc2nc(C)cs2)c1 ?
Cruzain noTriton: 4%; StopGo reporter: 5%; SARS PLpro yeast: 1%; NS1 function inh: 1%; LASV entry inh: -4%; RE007 growth inh: 7%; Cruzain Triton: 2.7%; Marburg entry inh: 23%

Results for Cc1ccccc1-c1nnc(-c2cccc3ccccc23)o1 ?
StopGo reporter: 51%[activator]; LASV entry inh: 20%; RE007 growth inh: 4%; Marburg entry inh: -27%

What do the screens show for `COc1cc(NC(=O)Cn2cc(S(=O)(=O)N3CCC(C)CC3)c3ccccc3c2=O)cc(OC)c1OC`?
Cruzain noTriton: inconclusive; StopGo reporter: 0%; LASV entry inh: -26%[46.1 µM]; Cruzain Triton: -10%; Marburg entry inh: 10µM*

What do the screens show for `O=C1C=C(O)CC(c2ccco2)C1` (stereo unspecified)?
Cruzain noTriton: 6%; StopGo reporter: 0%; SARS PLpro yeast: 11%; NS1 function inh: 19%; LASV entry inh: inconclusive; RE007 growth inh: 10%; Cruzain Triton: -1.5%; Marburg entry inh: 6%

How did COc1ccccc1CCNS(=O)(=O)CCNC(=O)c1ccccc1 do in these assays?
StopGo reporter: -5%; SARS PLpro yeast: -3%; LASV entry inh: 3%; RE007 growth inh: -8%; Marburg entry inh: 1%

Results for O=C(CN1CCCC1=O)NCCc1ccccc1 ?
StopGo reporter: -20%; SARS PLpro yeast: 0%; NS1 function inh: 2%; LASV entry inh: 4%; RE007 growth inh: -6%; Marburg entry inh: -11%[46.1 µM]

Results for CN(C)c1cccc2c(C=C(C#N)C#N)ccc(N(C)C)c12 ?
Cruzain noTriton: 20µM*; StopGo reporter: -22%; SARS PLpro yeast: -13%; NS1 function inh: 11%; LASV entry inh: 0%; RE007 growth inh: -6%; Cruzain Triton: 20µM*; Marburg entry inh: inconclusive
